Assay outcomes from PubChem BioAssay.
KCNQ2 inh: KCNQ2 potassium channel inhibitors, primary screen, cell-based, CHO-K1, FluxOR thallium flux, B-score (AID 2156). 20 min; hits give low values; only compounds with negative scores are shown here; some inactives read as strong as hits. B-score at 10 µM. actives 1.1% (n = 310,000);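 active = fluorescence ratio B-score at most minus 3 library SDs, with starting brightness B-score within 2 library SDs, cut at about -5.5 in these data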
Target sequence (O88943 whole entry, looked up): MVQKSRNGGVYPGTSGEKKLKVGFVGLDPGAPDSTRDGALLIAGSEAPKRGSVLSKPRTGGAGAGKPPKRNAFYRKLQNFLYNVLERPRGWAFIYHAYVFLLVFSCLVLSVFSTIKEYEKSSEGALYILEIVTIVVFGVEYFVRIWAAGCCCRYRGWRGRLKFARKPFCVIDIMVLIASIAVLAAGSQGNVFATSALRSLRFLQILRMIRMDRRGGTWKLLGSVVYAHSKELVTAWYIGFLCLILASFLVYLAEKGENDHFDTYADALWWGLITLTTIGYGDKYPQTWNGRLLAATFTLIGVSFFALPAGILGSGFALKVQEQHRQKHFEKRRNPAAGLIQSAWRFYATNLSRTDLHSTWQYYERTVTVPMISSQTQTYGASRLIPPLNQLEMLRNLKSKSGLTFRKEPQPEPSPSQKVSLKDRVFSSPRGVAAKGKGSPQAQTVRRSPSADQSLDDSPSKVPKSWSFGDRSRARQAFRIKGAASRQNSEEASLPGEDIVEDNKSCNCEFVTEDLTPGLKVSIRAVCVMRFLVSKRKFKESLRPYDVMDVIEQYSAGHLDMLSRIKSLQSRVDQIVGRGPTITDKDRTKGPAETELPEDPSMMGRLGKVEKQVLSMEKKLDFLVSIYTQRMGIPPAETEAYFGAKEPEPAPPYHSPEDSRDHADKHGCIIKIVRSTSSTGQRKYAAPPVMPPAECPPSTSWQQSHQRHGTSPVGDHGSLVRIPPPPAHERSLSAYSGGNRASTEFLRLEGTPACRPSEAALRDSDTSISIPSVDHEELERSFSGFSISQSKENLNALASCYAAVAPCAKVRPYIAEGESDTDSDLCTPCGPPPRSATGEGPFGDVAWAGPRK
KCNQ2 inh baseline: also measured in KCNQ2 inh; calls as there; B-score; measured here: initial fluorescence intensity artifact check;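 brightness before thallium and not channel activity; 0 = typical well and far values either way flag optical interference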
* hit, by the source's call; i = inactive. An excerpt. The share of hits here may be higher or lower than overall.

Order of results – KCNQ2 inh baseline, KCNQ2 inh
[1] CCOc1ccc(S(=O)(=O)N2CCCC(C(=O)NCc3ccccn3)C2)cc1C (configuration not stated)
  0.11, i
[2] COc1ccc(C(=O)c2c(-c3cccc(C)c3)oc3ccc(N4CCOCC4)cc23)cn1
  -0.01, i
[3] COc1ccccc1OCC(=O)NCCSCc1ccc(Cl)cc1
  0.02*, -5.6*
[4] O=C1CN(CC(=O)N2CCCCC2)c2ccccc2O1
  0.03, i
[5] O=C(NCCC1=CCCCC1)C1CC(=O)N(Cc2ccccc2)C1 (configuration not stated)
  -0.51, i
[6] O=C(C[n+]1cccc(NC(=O)c2ccccc2)c1)c1ccccc1
  -0.36, i
[7] CC(=O)c1ccc(OCCCC(=O)N2CCN(S(=O)(=O)c3cc(C)ccc3C)CC2)cc1
  1.2, i
[8] CC1CN(C(=O)c2cc3cc([N+](=O)[O-])ccc3oc2=O)CC(C)O1 (configuration not stated)
  -0.74, i
[9] COc1ccc(-c2cc(C(F)F)n3ncc(C(=O)Nc4ccc(C(=O)N5CCOCC5)cc4)c3n2)cc1
  0.09, i
[10] CCOC(=O)c1c(NC(=S)Nc2cc([N+](=O)[O-])ccc2OC)sc2c1CCCCC2
  1.5, i
[11] COC(=O)c1cc(S(=O)(=O)Nc2cccc(C)c2C)cn1C
  1.9, i
[12] O=C(OC(C(=O)NC1CCCCC1)c1ccccn1)c1cccs1 (configuration not stated)
  -1.1, i
[13] CC(C)c1ccccc1-n1c(SCC(=O)c2ccc3c(c2)NC(=O)CO3)nc2ccccc2c1=O
  4.5, i
[14] COc1ccccc1N=Cc1c(C)c(C#N)c2[nH]c3ccccc3n2c1=O
  -0.55, i
[15] CCc1cccc(NS(=O)(=O)c2ccc3c(c2)NC(=O)CC(=O)N3)c1
  1.3, i
[16] COCCCNC(=S)NNC(=O)c1csc(C)n1
  0.3, i
[17] Cc1ccc(-c2noc(-c3ccccc3F)n2)cc1
  -0.76, i
[18] COC(=O)c1ccc(NS(=O)(=O)c2ccc3[nH]c(=O)oc3c2)cc1
  -0.1, i
[19] O=C(COc1ccc(Cl)cc1Cl)Nc1nnc(C2=COCCO2)o1
  -0.18, i
[20] COC(=O)c1cc(C(=O)OCC(=O)NC2CCCC2)cc([N+](=O)[O-])c1
  0.01, i
[21] O=C(CCCn1c(=O)c2ccccc2n(Cc2cccc(F)c2)c1=O)NC1CCN(Cc2ccccc2)CC1
  -0.47, i
[22] CCN1/C(=C/C=C/C=C/c2sc3ccccc3[n+]2CC)Sc2ccccc21
  -1.4*, -21*
[23] CC(=O)c1cccc(NC(=O)NCCS(C)=O)c1 (configuration not stated)
  0.03, i
[24] COc1ccc(C(=O)NC(=S)Nc2nc(-c3ccc(OC)c(Br)c3)cs2)cc1Br
  2.6, i
[25] CCNc1nc(SC(C)C(=O)Nc2ccccc2)nc(N(C)C)n1 (configuration not stated)
  -2.4, i
[26] CC(=O)Nc1ccc(OCC(O)CN2CCN(Cc3ccccc3)CC2)cc1 (configuration not stated)
  1.2, i
[27] CCN(C(=O)COC(=O)c1ccc(N2C(=O)c3ccccc3C2=O)cc1)C1CCS(=O)(=O)C1 (configuration not stated)
  1.5, i
[28] CCOc1ccc(S(=O)(=O)NCCC(=O)Nc2ccncc2)cc1
  0.24, i
[29] COc1cc(S(=O)(=O)N2CCCN(C)CC2)ccc1NC(C)=O
  -0.64, i
[30] COc1ccc2nc(SCC(=O)Nc3ccc4c(c3)OCCO4)[nH]c2c1
  0.44, i
[31] C=CCOc1ccc(C=Nc2ccc(OC)cc2)c(O)c1
  0.11, i
[32] COc1ccccc1CNC(=O)C(NC(=O)c1ccccc1C)C(C)C (configuration not stated)
  3, i
[33] Cc1ccc(-c2cc(C(=O)N3CCCC3)no2)cc1
  2, i
[34] Cc1ccc(S(=O)(=O)N[C@H](C(=O)OCn2nnc3ccccc3c2=O)C(C)C)cc1
  -0.16, i
[35] COc1ccc(-n2nc(C(=O)NCC(=O)NCC3COc4ccccc4O3)c3ccccc3c2=O)cc1OC (configuration not stated)
  -0.3, i
[36] Cc1cc(CN(C)C(=O)CC2C(=O)NCCN2CC(c2ccccc2)c2ccccc2)on1 (configuration not stated)
  -1, i
[37] O=C(CSc1n[nH]c(-c2ccc(S(=O)(=O)NC3CCCCC3)cc2)n1)N1CCCC1
  -1.6, i
[38] CC1CN(CC(=O)Nc2cccc(C(=O)Nc3cccc(C(F)(F)F)c3)c2)CC(C)O1 (configuration not stated)
  -1.9, i
[39] O=C(c1ccc(CN2CCOCC2)cc1)N1CCN(Cc2ccccc2)CC1
  -0.15, i
[40] CSc1nc(Cc2ccccc2)nc2ccccc12
  0.69, i
[41] Cc1cc(C(=O)COC(=O)c2ccc([N+](=O)[O-])o2)c(C)n1CC1CCCO1 (configuration not stated)
  1.6, i
[42] COc1cc(O)cc2occ(-c3ccc(O)cc3)c(=O)c12
  1, i
[43] COc1ccccc1CNC(=O)c1c(O)c2cc(OC)c(OC)cc2[nH]c1=O
  -1.4, i
[44] O=C1NC(=O)C2(CCC(C(=O)O)C2)N1 (configuration not stated)
  -1.4, i
[45] O=C(c1ccco1)N1CCN(C2c3ccccc3-c3ccccc32)CC1
  0.8, i
[46] CCOc1ccc(-c2nnc(N)o2)cc1
  1.2, i
[47] COc1ccc(NC(=O)c2cn(CCC#N)nc2-c2cccs2)cc1
  2.1, i
[48] Cc1ccc(C)c2c1c1ccccc1n2C
  0.55, i
[49] CC1=NN(C(=O)CCc2ccccc2O)C(O)(C(F)(F)F)C1 (configuration not stated)
  1.9, i
[50] Cc1ccc(NC(=O)COC(=O)COc2ccc(Cl)cc2)c([N+](=O)[O-])c1
  -1, i
[51] O=C(CNC(=O)c1cccs1)NCC(=O)OCc1ccc(Cl)cc1
  0.24, i
[52] N#Cc1ccc(C23CC4(C2)[C@H](CN(Cc2ccc(-c5ccccc5)cc2)[C@@H]4c2ccccc2)C3c2ccc(Cl)nc2)cc1 (some centres not stated)
  -0.35, i
[53] Clc1ccc(CN2C3=NCCCN3c3ccccc32)cc1Cl
  -0.09, i
[54] CCC1(CC)C(=O)NC(=O)NC1=Nc1ccccc1
  -1.4, i
[55] CCC(CC)NC(=O)CCCSc1nc2ccccc2[nH]1
  0.03, i
[56] Cc1nn(C)c(Oc2cccc(C(F)(F)F)c2)c1C#N
  1.6, i
[57] CC(NC(=O)COC(=O)c1ccc2c(c1)S(=O)(=O)N=C1CCCCCN12)C12CC3CC(CC(C3)C1)C2 (configuration not stated)
  1.2, i
[58] OC(CNCC1CCCO1)Cn1c2ccc(Cl)cc2c2cc(Cl)ccc21 (configuration not stated)
  0.79*, -7.6*
[59] O=c1[nH][nH]c(-c2ccccc2O)c1C(C[N+](=O)[O-])c1ccccc1 (configuration not stated)
  1.1, i
[60] CCOCCCNC(=O)c1c(N)n(-c2ccc3c(c2)OCO3)c2nc3ccccc3nc12
  -0.67, i

Later entries:
Order of results – KCNQ2 inh baseline, KCNQ2 inh
[61] O=C(CSc1nncn1-c1ccccc1)c1c[nH]c2ccccc12
  2.3, i
[62] COc1ccccc1N=NC1=C(O)CC(C)(C)CC1=O
  0.29, i
[63] CCCN1C(=O)C2(SC(NC(C)=O)=NN2C(C)=O)c2cc(C)ccc21 (configuration not stated)
  -0.02, i
[64] O=C(O)c1cc(-c2ccco2)nn1-c1ccc(Cl)cc1
  0.02, i
[65] Cc1nn(S(=O)(=O)c2ccccc2)c(C)c1S(=O)(=O)N1CCC(C)CC1
  -0.08, i
[66] CCn1c2ccccc2c2nnc(SCc3ccccc3)nc21
  -0.03, i
[67] CSc1ccc(Cl)c(C(=O)N2CCOc3ccccc32)c1
  -0.06, i
[68] CC(CCN1C(Nc2ccccc2)=NC[C@@H]1C)c1ccccc1 (some centres not stated)
  1.3, i
[69] CCS(=O)(=O)c1ccc2oc(SCC(=O)NCCc3ccccc3)nc2c1
  -0.04, i
[70] COc1ccc(S(=O)CC(=O)Nc2ccc(Cl)cc2Cl)cc1 (configuration not stated)
  -0.04, i
[71] Nc1nnc(CCC2CCCCC2)s1
  -1.2, i
[72] COc1cccc(N(CC(=O)NC2CCCC2)C(=O)Cn2nnc(-c3ccc(C)cc3)n2)c1
  -0.21, i
[73] O=C(COC(=O)c1cc([N+](=O)[O-])ccc1NCc1ccccc1Cl)NCC(F)(F)F
  -0.09, i
[74] O=C(CN1CCCC1)Nc1c(Cl)cccc1Cl
  -0.91, i
[75] Cc1cccc(NC(=O)COc2ccc(Br)cc2/C=N/O)c1
  -0.39, i
[76] CCOC(=O)c1[nH]c(CSc2nnc(-c3ccc(OC)cc3)o2)c(C(=O)OCC)c1C
  0.91, i
[77] O=C(O)c1ccc(CSc2nnc(Cc3ccccc3)o2)cc1
  1.9, i
[78] O=C(Nc1c2c(nn1-c1ccc(F)cc1)CS(=O)C2)c1ccco1 (configuration not stated)
  0.12, i
[79] N#Cc1c2ccccc2nc2ccccc12
  0.84, i
[80] O=C(O)c1ccccc1/C=N/Nc1nc(N2CCCCC2)nc(N2CCCCC2)n1
  1.1, i
[81] COc1ccccc1N1CCN(C2CCCN(C(=O)c3ccnc4ccc(C)cc34)C2)CC1 (configuration not stated)
  -0.5, i
[82] COc1ccc(-c2cc(C(=O)Nc3c(C)nn(Cc4ccccc4Cl)c3C)no2)cc1
  1.1, i
[83] CCc1c(O)nc(SCc2ccccc2)n(C(C)CC)c1=O (configuration not stated)
  -0.36, i
[84] CNC(=S)N1C2CCCC1CC(NC(=O)c1ccc(F)cc1)C2 (configuration not stated)
  0.04, i
[85] CCN(CC)C(NC(=O)c1ccccc1)C(=O)c1ccccc1 (configuration not stated)
  -0.45, i
[86] O=C1/C(=N\S(=O)(=O)c2cccs2)C([n+]2ccc(CCCc3ccccc3)cc2)=C([O-])c2ccccc21
  0.89, i
[87] COc1ccc(CCN2CC(C(=O)N(C)Cc3ccc4nsnc4c3)CCC2=O)cc1 (configuration not stated)
  -0.46, i
[88] C=CCn1sc(N)c(C(=O)OCC)c1=S
  0.55, i
[89] CCc1ccccc1N(C)S(=O)(=O)c1ccc(-c2cc(C)no2)s1
  0.55, i
[90] O=C(CN1C(=O)C2CC=CCC2C1=O)Nc1nnc(SCc2ccc(Cl)cc2)s1 (configuration not stated)
  0.37, i
[91] Cc1cc(Cl)ccc1OCC(=O)N/N=C/c1ccc(OC2OC(CO)C(O)C(O)C2O)cc1 (configuration not stated)
  -0.62, i
[92] CCC(c1nnc(SCC(=O)Nc2ccc(Cl)cc2C(F)(F)F)n1C1CCCCC1)N(C)C (configuration not stated)
  -0.22, i
[93] CC1(C)CC(=O)C/C(=N/NC(=O)COc2ccc3ccccc3c2Br)C1
  -0.72, i
[94] CCN(CC)c1ccc(C2CC(=O)Nc3cc(OC)c(OC)cc32)cc1 (configuration not stated)
  -0.05, i
[95] CCOC(=O)c1ccc(Oc2nc(N(C)C)nc(N(C)C)n2)cc1
  0.51, i
[96] CC1(C)CC(=O)c2c(O)cc(OCC(=O)N3CCN(c4ccc(F)cc4)CC3)cc2O1
  -0.53, i
[97] Cc1ccc(NC(=O)COC(=O)CN2C(=O)COc3ccccc32)cc1
  -1.6, i
[98] CC(Cc1ccsc1)NC(=O)CCc1nnc(CCc2ccccc2)o1 (configuration not stated)
  -0.85, i
[99] Cc1cc(C)cc(C(=O)Nc2nnc(SCC(=O)NCC3CCCO3)s2)c1 (configuration not stated)
  -0.05, i
[100] CCOC(=O)c1sc(NC(=O)C(CC)OC(=O)C(CC(C)C)NC(=O)c2ccccc2)nc1C (configuration not stated)
  -1, i
[101] CCOC(=O)c1[nH]c2ccc(F)cc2c1NC(=O)c1ccccc1C(=O)O
  1.3, i
[102] COc1ccc(C(=O)N2CCN(c3ccc(N4CCOCC4)nn3)CC2)cc1OC
  -0.62, i
[103] C/C=C/c1ccc(OCc2cc(=O)n3cc(C)ccc3n2)c(OC)c1
  4.5, i
[104] COc1ccc(CCNC(=O)C2CC3Cn4c(nc5ccccc54)C3N2Cc2ccccc2)cc1 (configuration not stated)
  0.15, i
[105] Cc1cc(S(=O)(=O)NCC2CC2)c(Cl)cc1Cl
  0.89, i
[106] CN1CCN(C(=O)c2ccc(OCCOc3ccccc3)cc2)CC1
  0.02, i
[107] CCOC(=O)N1CCC(NC(=O)C(NC(=O)C2CCC(C)CC2)C(C)CC)CC1 (configuration not stated)
  2, i
[108] Cc1ccc(-c2nc(-c3cccnc3)sc2CC(=O)Nc2ccc3nc(C)sc3c2)cc1
  -0.34, i
[109] N=c1scc(-c2ccccc2)n1/N=C/c1ccco1
  0.86, i

In the list so far, these contain two or more sulfur atoms:
Order of results – KCNQ2 inh baseline, KCNQ2 inh
[10] CCOC(=O)c1c(NC(=S)Nc2cc([N+](=O)[O-])ccc2OC)sc2c1CCCCC2
  1.5, i
[16] COCCCNC(=S)NNC(=O)c1csc(C)n1
  0.3, i
[22] CCN1/C(=C/C=C/C=C/c2sc3ccccc3[n+]2CC)Sc2ccccc21
  -1.4*, -21*
[24] COc1ccc(C(=O)NC(=S)Nc2nc(-c3ccc(OC)c(Br)c3)cs2)cc1Br
  2.6, i
[37] O=C(CSc1n[nH]c(-c2ccc(S(=O)(=O)NC3CCCCC3)cc2)n1)N1CCCC1
  -1.6, i
[65] Cc1nn(S(=O)(=O)c2ccccc2)c(C)c1S(=O)(=O)N1CCC(C)CC1
  -0.08, i
[69] CCS(=O)(=O)c1ccc2oc(SCC(=O)NCCc3ccccc3)nc2c1
  -0.04, i
[86] O=C1/C(=N\S(=O)(=O)c2cccs2)C([n+]2ccc(CCCc3ccccc3)cc2)=C([O-])c2ccccc21
  0.89, i
[88] C=CCn1sc(N)c(C(=O)OCC)c1=S
  0.55, i
[89] CCc1ccccc1N(C)S(=O)(=O)c1ccc(-c2cc(C)no2)s1
  0.55, i
[90] O=C(CN1C(=O)C2CC=CCC2C1=O)Nc1nnc(SCc2ccc(Cl)cc2)s1 (configuration not stated)
  0.37, i
[99] Cc1cc(C)cc(C(=O)Nc2nnc(SCC(=O)NCC3CCCO3)s2)c1 (configuration not stated)
  -0.05, i
[108] Cc1ccc(-c2nc(-c3cccnc3)sc2CC(=O)Nc2ccc3nc(C)sc3c2)cc1
  -0.34, i
